# NPYLR7 agonist: activates Aedes aegypti NPYLR7 receptor. 270,000 compounds, 0.15% hits. AID 1259423. HEK293T NPYLR7/Galpha15, GCaMP6s calcium fluorescence. activation, % at 10 µM; in the data active = activation above about 40%;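 also: 0% = vehicle and 100% = reference agonist at the receptor; some compounds past the cut are filed as inactive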
# NPYLR7 agonist max-min: recorded beside NPYLR7 agonist, whose call it bears; activation, %; measured here: Max-Min RFU normalised activation; some inactives read as strong as hits;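 span of the calcium signal over five minutes; 0% = vehicle and 100% = native peptide agonist; compound fluorescence can raise it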
# An asterisk follows results filed as active; & = joins results of further samples.
No.	mol	NPYLR7 agonist	NPYLR7 agonist max-min
1	CCCCCN(CC(=O)Nc1sccc1C#N)CC(=O)Nc1sccc1C#N	-1	-5
2	CCn1nnc2c(NCCc3cccc(OC)c3)ncnc21	-1	8
3	FC(F)(F)c1nc(Nc2ccc3cn[nH]c3c2)c2ccccc2n1	0	6
4	N#CC(NC(=O)C(O)c1ccccc1)c1ccc(Cl)cc1 (stereo unspecified)	8	6
5	CCOc1ccc(C(=O)Nc2c(C)nc3sccn3c2=O)cc1OCC	4	-6
6	Cc1nnc(C)c2c(C)n(-c3ccc4c(c3)OCCO4)nc12	-2	-4
7	COc1cccc(CN2CCC(CN)C2)c1O (stereo unspecified)	1	3
8	Cc1cc(C(=O)N(CCCN2CCOCC2)c2nc3c(Cl)cccc3s2)no1	0	-1
9	CCc1cnc2c(c1N1CCc3ccccc31)c(=O)n(C)c(=O)n2C	4	3
10	COc1cc2c(cc1OC)CN(CC(O)c1ccccc1)CC2 (stereo unspecified)	-2	0
11	O=C(NCC1CCCO1)c1cccnc1N1CCN(C(=O)c2ccc(OC(F)F)cc2)CC1 (stereo unspecified)	30	17
12	CN(c1cc(C(C)(C)C)nc(SCc2cccc(C(=O)NCc3cccnc3)c2)n1)C1CCCCC1	0	16
13	CC(C)c1ccc(NC(=O)N(Cc2nc(C(=O)N3CCN(Cc4ccc5c(c4)OCO5)CC3)cs2)C(C)C)cc1	16	16
14	Cc1ccc(-c2csc(NC(=O)Cn3c(C)csc3=O)n2)c(C)c1	0&8	1&9
15	O=S(=O)(c1ccc(Cl)cc1)N1CCN(Cc2ccccc2)CC1	-5	-10
16	CCOC(=O)c1sc2nnc(SCC(=O)c3ccccc3)n2c1C	-7	-6
17	O=C(NCCC1=CCCCC1)c1ccc(-c2ccc(Oc3ccccc3)cc2)s1	6	3
18	O=C1CCCN1c1ccc([N+](=O)[O-])c(O)c1	2	2
19	CCCc1nc(N2CCN(C(=O)CSc3ccccc3)CC2)c2c(-c3cccc(C(F)(F)F)c3)noc2n1	21	6
20	O=C1c2ccccc2CN2C(=O)c3ccccc3CN12	-18	-31
21	Cc1nnc2ccc(OCCNS(=O)(=O)c3cc(F)ccc3F)nn12	-1	0
22	Cc1ccc(C(=O)Nc2nnc(-c3cc(C)n(C)n3)o2)cc1C	-6	-14
23	CCN(CC)S(=O)(=O)c1cccc(C(=O)Nc2nncs2)c1	-8	-11
24	CCCCCn1c(-c2ccccc2)cn2c3c(=O)n(C)c(=O)n(C)c3nc12	5	2
25	O=C(Cn1ncn2nc3c(c2c1=O)CCCC3)NCc1ccc(F)cc1	0	-5
26	CCc1ccc2oc(-c3ccc(NC(=O)c4ccc(OC)c([N+](=O)[O-])c4)cc3)nc2c1	-3	-10
27	Cc1nc(COc2ccc(C(=O)N3CCCC4CCCCC43)cc2)no1 (stereo unspecified)	-1	-1
28	O=C1C=CC(=O)N1c1ccccc1Br	-2	-10
29	CCCCN(CC(=O)N(CCc1ccc(OC)c(OC)c1)Cc1ccc(C)o1)C(=O)Nc1cccc(F)c1	-2	-12
30	CCn1c(SCC(=O)N2CC(C)OC(C)C2)nc2c([nH]c3ccccc32)c1=O (stereo unspecified)	5	5
31	CCOc1ccc(C2CC(c3ccc(C)cc3C)=NN2C(=O)CN2CCN(c3ccccc3F)CC2)cc1 (stereo unspecified)	12	7
32	CN1CCC(C(=O)C(C#N)c2ncc(C(F)(F)F)cc2Cl)CC1=O (stereo unspecified)	2	-1
33	O=C(Nc1cccc(Cl)c1Cl)c1csc(-c2cccs2)n1	-2	-6
34	Cc1ccn2c(NC(=O)C3CCCC3)c(-c3ccc(Cl)cc3)nc2c1	-2	5
35	CC1(C(=O)NS(=O)(=O)c2cccc(C#N)c2)CCN1C(=O)C/C=C/c1ccccc1 (stereo unspecified)	2	3
36	COc1cccc(Cc2nsc(N3CCCC(C(=O)NCCc4ccc(Cl)cc4Cl)C3)n2)c1 (stereo unspecified)	17	28
37	COc1ccc(NC(=O)C(C)Sc2nnc(C3CC3)n2C2CC2)cc1 (stereo unspecified)	0	2
38	CC(=O)Oc1ccccc1C(=O)N1CCC(CCc2ccccc2)CC1	1	9
39	Cc1cccn2c(=O)nc(SCC(=O)c3ccccc3)nc12	4	0
40	O=c1oc2cc(Oc3cnn(-c4ccccc4)c(=O)c3Cl)ccc2c2c1CCC2	5	3

# Some of the entries so far, field by field.
(34) Cc1ccn2c(NC(=O)C3CCCC3)c(-c3ccc(Cl)cc3)nc2c1
  NPYLR7 agonist: -2
  NPYLR7 agonist max-min: 5

(39) Cc1cccn2c(=O)nc(SCC(=O)c3ccccc3)nc12
  NPYLR7 agonist: 4
  NPYLR7 agonist max-min: 0

(38) CC(=O)Oc1ccccc1C(=O)N1CCC(CCc2ccccc2)CC1
  NPYLR7 agonist: 1
  NPYLR7 agonist max-min: 9

(26) CCc1ccc2oc(-c3ccc(NC(=O)c4ccc(OC)c([N+](=O)[O-])c4)cc3)nc2c1
  NPYLR7 agonist: -3
  NPYLR7 agonist max-min: -10

# New compounds follow
No.	mol	NPYLR7 agonist	NPYLR7 agonist max-min
41	Fc1cccnc1COc1ccc2c(C3CC3)noc2n1	-3	-4
42	COc1ccc(-c2csc(=NCCCN3CCOCC3)n2NC(=O)C(C)Oc2ccc(Cl)cc2C)cc1 (stereo unspecified)	-6	-10
43	CSc1ccc(C(=O)CC(C)(C)C(=O)NCCCc2ccccc2)cc1	-9	-13
44	CC12CC3(C(=O)Nc4cccc(Cl)c4Cl)C1CCC23C (stereo unspecified)	3	1
45	O=C(NCCc1ccccn1)C(C1CCCC1)N1CCN(C(=O)CCc2ccccc2)CC1 (stereo unspecified)	-6	-3
46	COC(=O)c1ccc(C(=O)NCc2ccc(-c3ncc(-c4ccc(N5CCOCC5)cc4)[nH]3)cc2)cc1	22	18
47	CC(C)(C(=O)NCCN1CCN(c2ncccn2)CC1)c1ccccc1	-1	-3
48	Cc1ccc2nc(-c3ccncc3)cc(-c3ccccc3)c2c1	13	16
49	Cc1cc(F)cc(S(=O)(=O)NC(=O)c2c(C)noc2C)c1	4	1
50	COc1ccc(OCCNC(=O)C2(C)CCN2CCOc2ccc(C)cc2)cc1 (stereo unspecified)	5	-1
51	Cc1cccc(NC(=O)CSc2nc3[nH]ncc3c(=O)[nH]2)c1	0	-1
52	CCCCC(=O)Oc1c(S(=O)(=O)c2ccccc2)c(C)nn1C(C)(C)C	2	5
53	CCN(CCN1CCOCC1)Cc1ncc[nH]1	8	3
54	O=S(=O)(NC1CCN(Cc2ccccc2F)CC1)c1ccc2c(c1)CCC2	-1	15
55	CCSCCOC(=O)C1=C(C)NC2=C(C(=O)CC(c3ccc(Cl)cc3)C2)C1c1ccc(N(C)C)cc1 (stereo unspecified)	0	5
56	Cn1cc(C#N)cc1C(=O)N1CC(C)(C)Sc2ccccc21	1	0
57	CC(C)c1nnc(CN(C)C(C)c2cccc(O)c2)o1 (stereo unspecified)	11	5
58	Cc1cc(=O)n(CC(=O)Nc2ccc([N+](=O)[O-])cc2)c(-n2nc(C)cc2C)n1	2	-3
59	CC(OC(=O)c1cc(Br)ccc1F)C(=O)N1C(C)CCCC1C (stereo unspecified)	-6	-9
60	Cc1cc(CNC(=O)c2ccc[nH]2)ccc1Oc1ccc(F)cc1	2	331
61	CN1CC[C@H](N(Cc2ccccc2)C(=O)Cc2ccc(F)cc2)C[C@H](O)C1	0	10
62	O=C(Nc1ccccc1)c1nn(-c2ccccc2F)c(=O)n(Cc2ccc(C(F)(F)F)cc2)c1=O	15	11
63	CCCc1nc(-c2ccccc2)c(-c2ccc(OC)c(OC)c2)c(=O)[nH]1	-6	3
64	COc1cccc(N=c2scc(-c3ccccc3)n2-c2ccc(S(N)(=O)=O)cc2)c1	-5	-11
65	Cn1ccnc1C(NC(=O)c1cn[nH]c1-c1cccc(F)c1)C1CC1 (stereo unspecified)	10	11
66	COCCN(CC(=O)N(CCc1c[nH]c2ccccc12)Cc1ccc(OC)c(OC)c1)C(=O)NC12CC3CC(CC(C3)C1)C2	9	8
67	CCc1cc(=O)[nH]c(-n2nc(C)cc2NC(=O)c2cc(Cl)ccc2OC)n1	12	4
68	Cc1cc(OCC2c3ccsc3CCN2C(=O)CN(Cc2ccco2)C(=O)c2cccs2)ccc1Cl (stereo unspecified)	1	8
69	CCOCCc1nc(CCc2ccccc2)nn1-c1ccccn1	3	1
70	C=CCNC(=O)CSC(C)c1cccs1 (stereo unspecified)	0	-9
71	CC(C)c1csc(C2CCCN(Cc3nnc(C(C)C)o3)C2)n1 (stereo unspecified)	0	-1
72	CC(NC(=O)c1cccc(Cl)c1Cl)c1cccs1 (stereo unspecified)	2	12
73	CC(C)Oc1ccc(C(=O)CN2C(=O)c3ccccc3S2(=O)=O)cc1	18	14
74	CC(=O)c1cc(C(=O)N2CC(C)Sc3ccccc32)n(C)c1 (stereo unspecified)	2	0
75	COCCn1c(C)cn2c3c(=O)n(Cc4c(Cl)cccc4Cl)c(=O)n(C)c3nc12	0	29
76	c1ccc2c(c1)oc1c(N3CCCCCC3)ncnc12	6	-1
77	CCN1CC2CCCC3(C1)C(=O)NC1(CCCCC1)N=C23 (stereo unspecified)	3	-2
78	Cc1noc(C)c1CC(=O)NCC(C)c1ccccc1 (stereo unspecified)	-9	-8
79	CCc1ncc(C(=O)N2CCN(C)c3cc(F)ccc32)[nH]1	2	-1
80	O=c1[nH]c(=S)c2c(n1Cc1ccccc1)CCCC2	-1	-4
81	C#CC(C)(O)C1CC2CC1C1ON=C(C(N)=O)C21 (stereo unspecified)	-4	-8
82	CC(C)(C)c1ccc(C(=O)NC(=O)CCn2cnc(C#N)n2)cc1	5	4
83	CCCCN(CCc1nc(-c2cccc([N+](=O)[O-])c2)no1)CC(O)CN1CCOCC1 (stereo unspecified)	6	9
84	CNS(=O)(=O)c1ccc(C(=O)N2CCc3ccccc32)o1	-5	-5
85	Cc1cccc(CSc2nc3c(c(=O)n2CCc2ccccc2)SCC3)c1	4	0
86	CCn1cc(CN2CCC(C(=O)Nc3ccc(Oc4ccccc4)nc3)CC2)cn1	-4	-3
87	CN1CCC(N2CCN(Cc3cccc(OC4CCCC4)c3)CC2CCO)CC1 (stereo unspecified)	2	-1
88	CCC(C)C1N=C2c3ccccc3N=C(SCc3cc(=O)n4cc(Br)ccc4n3)N2C1=O (stereo unspecified)	7	5
89	CC(=O)NCCC1CCCCN1Cc1nc(C2(c3ccc(C)cc3)CCCC2)no1 (stereo unspecified)	6&2	2&-3
90	CC(C)c1nccn1C(C)C(=O)NCc1scnc1-c1ccccc1 (stereo unspecified)	13	8
91	COc1cc(C(=O)NCC(=O)N2CCCC2c2nc3ccccc3[nH]2)cc(OC)c1OC (stereo unspecified)	15	6
92	Fc1ccc(C2CCCN2Cc2nc(-c3ccc4c(c3)OCO4)no2)cc1 (stereo unspecified)	4	-2
93	CCOC1CC(NC(=O)C2CCOC2)C1(CC)CC (stereo unspecified)	4	-1
94	COc1ccc(C(=O)N(CCCN2CCOCC2)CC(=O)N(Cc2ccccc2)Cc2ccc(C)o2)c(OC)c1	1	8
95	CCc1sc(C(=O)NNC(=O)CCN2CCSC2=O)cc1C	0	-5
96	O=C1N=c2ccccc2=C1c1sc(=S)n(-c2ccc(O)cc2)c1O	1	-1
97	COc1cc(C2c3c(n[nH]c3-c3ccccc3)OC(=N)C2C#N)ccc1O (stereo unspecified)	-2	-8
98	COc1ccccc1C1SCC(=O)N1CC(O)c1ccccc1 (stereo unspecified)	0	-4
99	CCOC(=O)[C@@H]1[C@@H](OC)C(=O)N(C)C12CCN(S(=O)(=O)c1cccs1)CC2	28	29
100	COc1cccc(C(=O)Nc2c(C)nc3c(C)cccn3c2=O)c1	3	-1

# Structures from the list above that contain a CF3 group (4):
No.	mol	NPYLR7 agonist	NPYLR7 agonist max-min
3	FC(F)(F)c1nc(Nc2ccc3cn[nH]c3c2)c2ccccc2n1	0	6
19	CCCc1nc(N2CCN(C(=O)CSc3ccccc3)CC2)c2c(-c3cccc(C(F)(F)F)c3)noc2n1	21	6
32	CN1CCC(C(=O)C(C#N)c2ncc(C(F)(F)F)cc2Cl)CC1=O (stereo unspecified)	2	-1
62	O=C(Nc1ccccc1)c1nn(-c2ccccc2F)c(=O)n(Cc2ccc(C(F)(F)F)cc2)c1=O	15	11

# Later entries
No.	mol	NPYLR7 agonist	NPYLR7 agonist max-min
101	COc1ccc2c3c1C(C(N)=O)N(Cc1ccccc1)CC3=CC(C)(C)CO2 (stereo unspecified)	4	13
102	CCCC(=O)N=c1sc2cc(Cl)cc(C)c2n1C	22	18
103	CCCOc1ccc(Oc2nc(NCC)cc(NC(C)(C)C)n2)nn1	0	-4
104	Cc1nnc(SCC(=O)N2Cc3cnc(C(C)(C)C)nc3C2)s1	-1	-4
105	O=C(NC1CCN(C(=O)c2ccncc2)CC1)C1CC2(CCNCC2)CN1 (stereo unspecified)	7	3
106	CCN1C(=O)N(CO)C2C1N(C)C(=O)N2C (stereo unspecified)	9	8

# Screening data deposited in PubChem by Fisher Drug Discovery Resource Center.

# Not all compounds are listed (hit frequency here may not be typical).
